rRNA inh HTS = selective bacterial rRNA inhibition in E. coli; hit rate 1.6% among 350,000; AID 720706; GFP signal change (wild-type ribosome), % (concentration not given with the values); E. coli WT GFP vs humanized-ribosome RFP mutants, fluorescence, 24 h; hits give low values; DMSO median 0, no signal -100;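 active = significant combined selectivity score with lowered wild-type GFP, culture density cut under 30%, mutant RFP and density less affected; inactive = any of these conditions unmet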; also: one replicate is shown; some compounds called inactive have numbers as strong as hits
rRNA inh HTS OD600 = also measured in rRNA inh HTS; calls as there; OD600 change, %; measured here: OD600 growth;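 optical density of the mix in the first replicate; 0 = DMSO median and -100 = no signal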
rRNA inh HTS RFP = also measured in rRNA inh HTS; calls as there; RFP signal change, %; measured here: RFP humanized mutant strains;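 first replicate; 0 = DMSO median and -100 = no signal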
The depositor's hits bear a star. These rows are one share of the data (hit frequency here may not be typical).

molecule	rRNA inh HTS	rRNA inh HTS OD600	rRNA inh HTS RFP
C/C=C/c1ccc([C@H]2[C@@H](CO)N(CC3CCCC3)[C@H]2CNS(C)(=O)=O)cc1	-5	-7	2.1
CC[C@H]1CC=CC[C@@H](C)Oc2ccccc2C(=O)N(C)[C@H](C(C)C)C(=O)N1 (mixture of isomers)	-7	-21	-0.1
COc1ccc(C(=O)Nc2ccc3c(c2)OC[C@@H](C)N(C(=O)C2CC2)C[C@@H](C)[C@H](OC)CN(C)C3=O)cc1	-1	-1	0.4
COc1ccc2c3c(n(C)c2c1)[C@@H](CO)N(C(=O)c1cnccn1)CC31CN(C(=O)c2ccncc2)C1	0	-2	-3.2
C/C=C/c1ccc([C@H]2[C@@H](CNC(=O)c3ccccc3)N(C(C)=O)[C@H]2CO)cc1	-1	11	-0.5
CO[C@H]1CN(C)C(=O)c2ccc(NC(=O)Nc3ccc(Cl)cc3)cc2OC[C@H](C)NC[C@@H]1C	-3	-1	5.0
C[C@H](CO)N1C[C@H](C)[C@H](CN(C)S(C)(=O)=O)OCc2cn(nn2)CCCC1=O	1	0	1.4
O=C(NC[C@H]1[C@H](c2ccccc2)[C@H](CO)N1Cc1ccccn1)C1CCC1	4	9	-0.5
C[C@@H]1CC=CC[C@@H](c2cccc(Cl)c2)NC(=O)[C@@H](C)N(C)C(=O)c2ccccc2O1 (mixture of isomers)	-56	-80	-14
CNC[C@@H]1OCCCC[C@H](C)Oc2ccc(NC(=O)Nc3ccc(C(F)(F)F)cc3)cc2C(=O)N([C@H](C)CO)C[C@H]1C	-29	-61	33
CCCN1C[C@@H](C)[C@H](OC)CN(C)C(=O)c2cc(NC(=O)NC3CCCC3)ccc2OC[C@@H]1C	2	0	2.6
CC(=O)NC[C@H]1[C@H](c2ccc(-c3cccnc3)cc2)[C@@H](CO)N1C(=O)C1CCC1	0	14	-3.1
C[C@@H]1COCn2nncc2CC[C@H](Cc2ccccc2)C(=O)N1	4	-5	-3.9
CNC[C@@H]1Oc2ccc(NS(C)(=O)=O)cc2C(=O)N(C)C[C@@H]1C	-2	-2	0.2
CCCNC(=O)N1CCC2(CC1)CN(C(C)=O)[C@@H](CO)c1[nH]c3cc(OC)ccc3c12	2	12	-4.9
CNC[C@@H]1OCCCC[C@H](C)Oc2ccc(N(C)C)cc2C(=O)N([C@H](C)CO)C[C@H]1C	7	11	0.0
COc1ccc2c3c(n(C)c2c1)[C@H](CO)N(C(=O)CC1CC1)CC31CN(Cc2ccncc2)C1	2	4	-0.3
CO[C@H]1CN(C)C(=O)c2cc(NC(C)=O)ccc2OC[C@@H](C)N(Cc2cccnc2)C[C@@H]1C	2	4	-1.4
C[C@H]1CN([C@@H](C)CO)C(=O)c2cc(C#Cc3ccccn3)cnc2O[C@H]1CN(C)Cc1ccccc1	3	4	1.9
CCCNC(=O)N1[C@@H](CO)[C@@H](c2ccccc2)[C@@H]1CNC(=O)c1ccc(F)cc1	-10	4	1.9
COc1cccc(CN(C)C[C@@H]2OCc3cnnn3CCCC(=O)N([C@H](C)CO)C[C@@H]2C)c1	0	0	0.4
C[C@@H]1CN([C@@H](C)CO)C(=O)Cc2cc(NS(=O)(=O)c3ccc(F)cc3)ccc2O[C@@H]1CN(C)Cc1ccc(Cl)c(Cl)c1	-1	0	3.2
CCCNC(=O)N1C[C@H]2[C@@H](c3ccccc31)[C@H](CO)N2Cc1ccc(F)cc1	0	-4	-0.8
CCCN1C[C@H](C)[C@@H](OC)CN(C)C(=O)c2cc(NS(C)(=O)=O)ccc2OC[C@H]1C	0	-1	-0.5
CO[C@H]1CN(C)C(=O)c2ccc(NC(=O)C3CC3)cc2OC[C@H](C)N(C(=O)C2CCCCC2)C[C@@H]1C	-2	-1	-1.7

Continued, overlapping the part above by 5 compounds.
molecule	rRNA inh HTS	rRNA inh HTS OD600	rRNA inh HTS RFP
COc1cccc(CN(C)C[C@@H]2OCc3cnnn3CCCC(=O)N([C@H](C)CO)C[C@@H]2C)c1	0	0	0.4
C[C@@H]1CN([C@@H](C)CO)C(=O)Cc2cc(NS(=O)(=O)c3ccc(F)cc3)ccc2O[C@@H]1CN(C)Cc1ccc(Cl)c(Cl)c1	-1	0	3.2
CCCNC(=O)N1C[C@H]2[C@@H](c3ccccc31)[C@H](CO)N2Cc1ccc(F)cc1	0	-4	-0.8
CCCN1C[C@H](C)[C@@H](OC)CN(C)C(=O)c2cc(NS(C)(=O)=O)ccc2OC[C@H]1C	0	-1	-0.5
CO[C@H]1CN(C)C(=O)c2ccc(NC(=O)C3CC3)cc2OC[C@H](C)N(C(=O)C2CCCCC2)C[C@@H]1C	-2	-1	-1.7
CCCN1C[C@@H](C)[C@H](OC)CN(C)C(=O)c2cc(NC(=O)CC)ccc2OC[C@@H]1C	0	2	-2.5
CCCNC(=O)N1CCC2(CC1)CN(C(=O)CC1CC1)[C@H](CO)c1c2c2ccc(OC)cc2n1C	1	1	-3.9
C/C=C/c1ccc2c(c1)O[C@@H](CN(C)C(=O)C1CC1)[C@@H](C)CN([C@@H](C)CO)S2(=O)=O	-1	-2	-2.1
CNC(=O)C[C@@H]1CC[C@@H]2[C@@H](COc3ccc(NC(=O)Nc4ccccc4F)cc3C(=O)N2C)O1	-1	-2	1.3
C[C@H](CO)N1C[C@H](C)[C@@H](CN(C)S(=O)(=O)c2ccc(Cl)cc2)Oc2ccc(NS(C)(=O)=O)cc2C1=O	-1	-3	-0.7
C[C@@H]1CN([C@@H](C)CO)C(=O)c2cccc(NC(=O)Nc3ccc(C(F)(F)F)cc3)c2O[C@H]1CN(C)S(=O)(=O)c1ccccc1	1	-7	0.6
C[C@H]1CN(C)C(=O)c2cccc([N+](=O)[O-])c2O[C@@H]1CN(C)C(=O)OC(C)(C)C	-5	-8	2.2
CC(C)NC(=O)N(C)C[C@H]1Oc2c(NS(=O)(=O)c3cccs3)cccc2C(=O)N([C@@H](C)CO)C[C@@H]1C	4	15	-1.7
C[C@@H]1CN([C@@H](C)CO)C(=O)c2cc(NC(=O)Nc3ccccc3)ccc2O[C@@H](C)CCCCO[C@@H]1CN(C)Cc1ccncc1	-5	-16	2.8
COCC(=O)Nc1ccc2c(c1)C(=O)N(C)C[C@H](OC)[C@@H](C)CN(C(=O)Cc1cccnc1)[C@@H](C)CO2	6	7	-2.4
O=C(C[C@H]1C[C@@H]2c3cc(NC(=O)NC4CCCCC4)ccc3O[C@@H]2[C@H](CO)O1)NC1CCCC1	2	3	-2.5
C/C=C/c1ccc2c(c1)O[C@H](CN(C)C(=O)C1CC1)[C@H](C)CN([C@H](C)CO)S2(=O)=O	-1	4	2.0
CCS(=O)(=O)NCC[C@H]1CC[C@@H](NC(=O)C2CCCCC2)[C@H](CO)O1	1	-5	-0.6
C[C@H](CO)N1C[C@H](C)[C@@H](CN(C)Cc2ccc(-c3ccccc3)cc2)Oc2ccc(NC(=O)Cc3ccccc3)cc2C1=O	-3	-3	4.1
C[C@@H]1CN([C@H](C)CO)S(=O)(=O)c2ccc(-c3ccccc3)cc2O[C@@H]1CN(C)C(=O)C1CCC1	-9	-18	3.2
CCCN(C)C[C@H]1OCCCC[C@@H](C)Oc2ccc(NS(=O)(=O)c3cn(C)cn3)cc2C(=O)N([C@@H](C)CO)C[C@H]1C	6	16	-1.4
O=C(Nc1ccccc1)N1CC(=O)N2[C@H](C1)[C@H](c1ccc(-c3ccc(F)cc3)cc1)[C@@H]2CO	-1	-14	9.2
CCC(=O)Nc1ccc2c(c1)C(=O)N(C)C[C@@H](OC)[C@@H](C)CN(CC1CCOCC1)[C@H](C)CO2	2	-4	-0.2
Cc1ccccc1-c1ccc([C@@H]2[C@H]3CN(C(=O)c4cccnc4)CC(=O)N3[C@H]2CO)cc1	-2	-7	-4.2
C[C@@H]1CN([C@H](C)CO)S(=O)(=O)c2ccc(C#Cc3cccnc3)cc2O[C@@H]1CN(C)CC1CC1	-2	5	-1.2
C[C@H](CO)N1C[C@H](C)[C@@H](CN(C)S(C)(=O)=O)Oc2ccc(NC(=O)Nc3ccc4c(c3)OCO4)cc2CC1=O	0	6	1.1
CC(C)[C@@H]1COCc2cnnn2CCC[C@@H](C)C(=O)N1	2	3	-2.8
COc1ccc2c3c([nH]c2c1)[C@H](CO)N(C(=O)c1ccccn1)CC31CCN(S(C)(=O)=O)CC1	7	21	0.3
CO[C@@H]1CN(C)C(=O)c2cc(NC(=O)Nc3cccc(Cl)c3)ccc2OC[C@H](C)N(C(=O)Nc2c(C)noc2C)C[C@@H]1C	-7	-19	3.8
C[C@@H]1CN([C@@H](C)CO)C(=O)c2cc(NC(=O)C3CCCCC3)ccc2O[C@@H]1CN(C)S(=O)(=O)c1ccc(Cl)cc1	-7	-13	-0.5
COc1ccc(S(=O)(=O)N(C)C[C@H]2Oc3ccc(NC(=O)Nc4ccc(C(F)(F)F)cc4)cc3C(=O)N([C@@H](C)CO)C[C@@H]2C)cc1	3	0	0.6
CO[C@@H]1CN(C)C(=O)c2cc(NC(=O)c3cccc(F)c3)ccc2OC[C@H](C)N(C(C)=O)C[C@H]1C	3	2	1.1
Cc1noc(C)c1NC(=O)N(C)C[C@@H]1Oc2ccc(NC(=O)C3CC3)cc2C(=O)N([C@H](C)CO)C[C@H]1C	5	7	-0.9
CC(C)C#Cc1ccc([C@@H]2[C@@H](CO)N3C(=O)CN(C(=O)Cc4cccnc4)C[C@@H]23)cc1	-1	5	1.1
COc1ccc2c3c(n(C)c2c1)[C@@H](CO)N(Cc1ccccc1F)CC31CCN(C(C)=O)CC1	5	7	0.1
O=C1N[C@@H](Cc2ccccc2)COCc2cnnn2CC[C@@H]1Cc1ccc(-c2ccccc2)cc1	-8	-5	-2.0
C[C@H](CO)N1C[C@H](C)[C@H](CN(C)S(=O)(=O)c2cn(C)cn2)Oc2c(NC(=O)C3CCCCC3)cccc2C1=O	-1	3	0.3
C[C@@H]1CCCCO[C@H](CN(C)C(=O)CCCN(C)C)[C@H](C)CN([C@H](C)CO)C(=O)c2cc(NS(C)(=O)=O)ccc2O1	1	2	-5.6
C[C@H](CO)N1C[C@H](C)[C@@H](CN(C)S(=O)(=O)c2cn(C)cn2)Oc2c(NC(=O)CCCN(C)C)cccc2C1=O	4	-7	0.9
CO[C@@H]1CN(C)C(=O)c2cc(NC(C)=O)ccc2OC[C@@H](C)N(CC2CCCCC2)C[C@@H]1C	6	8	-1.1
C[C@@H]1CCCCO[C@H](CN(C)C(=O)c2ccccc2)[C@@H](C)CN([C@H](C)CO)C(=O)c2cc(NC(=O)c3ccccc3)ccc2O1	-4	0	-1.5
C[C@H](CO)N1C[C@H](C)[C@H](CN(C)C(=O)C2CCCCC2)Oc2cc(C#CC3CC3)ccc2S1(=O)=O	-4	-13	5.5
C[C@@H]1CN(C)C(=O)c2cccc(N)c2O[C@@H]1CN(C)C(=O)OC(C)(C)C	1	4	1.4
COc1ccc2c3c([nH]c2c1)[C@H](CO)N(C(=O)c1ccc(F)cc1)CC31CCN(S(=O)(=O)c2cccs2)CC1	-4	-10	-1.6
C[C@@H]1CN([C@@H](C)CO)C(=O)Cc2cc(NS(=O)(=O)c3ccc(F)cc3)ccc2O[C@H]1CN(C)C(=O)Nc1ccc2c(c1)OCO2	1	2	0.5
CCC(=O)NC[C@@H]1N[C@@H](CO)[C@H]1c1ccc(C2=CCCC2)cc1	1	2	-0.5
C[C@@H]1CN([C@@H](C)CO)C(=O)CCCn2cc(nn2)CO[C@@H]1CN(C)C(=O)Nc1ccc2c(c1)OCCO2	3	-1	-1.8
O=C1C[C@H](c2ccccc2)C(=O)N[C@@H](c2ccccc2)C/C=C\C[C@H](c2ccccc2)N1	3	5	-2.5
CN(C)C(=O)c1cccc(-c2ccc3c(c2)[C@H]2[C@H](CCN2C(=O)c2ccc4c(c2)OCO4)[C@H](CO)N3)c1	-7	4	-1.5
CO[C@H]1CN(C)C(=O)c2cc(NC(=O)Nc3ccc(Cl)cc3)ccc2OC[C@@H](C)N(C(=O)Nc2c(C)noc2C)C[C@@H]1C	-2	5	0.5
COc1ccc2c3c(n(C)c2c1)[C@@H](CO)N(C(C)=O)CC31CCN(Cc2cncnc2)CC1	-2	4	0.1
C/C=C/c1ccc([C@@H]2[C@H](CO)N[C@H]2CN(C(=O)c2ccccc2F)C(C)C)cc1	0	-6	6.1
COc1ccc2c3c(n(C)c2c1)[C@@H](CO)N(C(=O)Nc1ccccc1F)CC31CN(C(=O)c2ccccc2F)C1	-2	-7	-3.7
CNC[C@@H]1Oc2c(NC(=O)Nc3ccc4c(c3)OCO4)cccc2C(=O)N([C@H](C)CO)C[C@@H]1C	3	3	-0.4

Single values from the results shown:
COc1ccc2c3c(n(C)c2c1)[C@@H](CO)N(Cc1ccccc1F)CC31CCN(C(C)=O)CC1 in rRNA inh HTS RFP: 0.1
C[C@H]1CN([C@@H](C)CO)C(=O)c2cc(C#Cc3ccccn3)cnc2O[C@H]1CN(C)Cc1ccccc1 in rRNA inh HTS OD600: 4
CCC(=O)NC[C@@H]1N[C@@H](CO)[C@H]1c1ccc(C2=CCCC2)cc1 in rRNA inh HTS: 1
C[C@@H]1CN([C@@H](C)CO)C(=O)c2cc(NC(=O)C3CCCCC3)ccc2O[C@@H]1CN(C)S(=O)(=O)c1ccc(Cl)cc1 in rRNA inh HTS: -7
CO[C@@H]1CN(C)C(=O)c2cc(NC(C)=O)ccc2OC[C@@H](C)N(CC2CCCCC2)C[C@@H]1C in rRNA inh HTS: 6
